Screening results from PubChem BioAssay.
Calb FLC = affects C. albicans growth with fluconazole | C. albicans CaCi-2 (fluconazole-resistant clinical isolate) + fluconazole, Alamar Blue growth, 48 h | growth inhibition, % (test concentration not listed) | 300,000 tested, 0.57% active | AID 1979;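 active = most replicates above 75%; inconclusive = exactly half above 75%; inactive = most below 75%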;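 note: all wells also contain fluconazole at 8 µg/ml as a sub-toxic cotreatment; 0% = median of DMSO wells and 100% = median of geldanamycin control wells; wells of about 8 µL received 7.5 nL stock; the first replicate is given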
Vif A3G = HIV-1 Vif–A3G interaction blockers – biochemical, TR-FRET, GST-Vif 1-94, biotin-A3G peptide, dose response retest, primary screen (AID 1117319) | 260,000 tested, 0.57% active | inhibition, %; hits with a dose series show IC50 in µM | TR-FRET GST-Vif / biotin-A3G peptide binding; higher % means a stronger effect; test concentration not given here; strong numbers were not always called active;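 active = above the screen mean plus three standard deviations and confirmed in dose response; inconclusive = results disagree or hit not tested in dose response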;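 note: Vif residues 1-94 fused to GST binding biotinylated APOBEC3G peptide 110-148; 0% = full assay without inhibitor and 100% = GST in place of GST-Vif; retest series ran down from 100 µM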
MLL AF4-AF9 inh = inhibitors of human MLL-AF4/AF9 interaction; P42568; AlphaScreen, biotin-AF4 peptide binding to FLAG-AF9; inhibition, % at 10 µM; 350,000 tested, 0.47% active; AID 651704;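 active = every replicate reaching a set inhibition limit, whatever the replicate mean, cut at about 25% in these data; inconclusive = mean inhibition reaches that limit but some replicates miss it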;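 note: 0% = plate neutral control median and 100% = total signal loss; the record names both 10 and 1 µM as test concentration; the first replicate is given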
Beta cell apopt = blocks beta cell apoptosis; AID 435005; protection from apoptosis, % (no concentration beside the values); INS-1E cytokine-induced death, ATP luminescence, 48 h; percent of positive-control rescue, neutral wells zero; 300,000 tested, 0.8% active;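 active = all replicates at 75% or more, or half of them and the mean; inconclusive = half reach 75% but not the mean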;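 note: 0% = cytokine-treated negative control wells and 100% = positive control rescue; higher means more ATP so stronger rescue from cytokine killing; wells of about 40 µL received 100 nL stock; the first replicate is given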
T cruzi repl = T. cruzi replication inhibition | T. cruzi beta-gal in NIH3T3, luminescence, 90 h | inhibition, % (concentration not given with the values) | 300,000 tested, 1.4% active;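 active = mean inhibition across valid replicates above about 55%, limit read from the data; inconclusive = mean below that limit but half or more replicates reach it; inactive = mean below it, under half of replicates reach it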;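 note: signal also drops with host cell toxicity which is not excluded here; 0% = plate median of DMSO wells and 100% = zero luminescence signal; higher percent means less beta-gal luminescence so fewer parasites; stock transfer was 50 nL into about 50 µL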
LANA-H2A inh = blocks KSHV LANA binding to histone H2A/H2B | Q9QR71 | cell-free LANA-H2A/H2B peptide, fluorescence polarization | inhibition, % (concentration not given with the values) | 320,000 tested, 0.6% active; in the data active = inhibition mostly above about 10%, no sharp cut-off; inactive = mostly below about 6.7%;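 note: stock transfer was 7.5 nL into about 10 µL; 0% = median of vehicle wells and 100% = median of positive control wells; one replicate is shown; the record names a cut of 25% in any replicate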
Target sequence (Q9QR71 whole entry, looked up): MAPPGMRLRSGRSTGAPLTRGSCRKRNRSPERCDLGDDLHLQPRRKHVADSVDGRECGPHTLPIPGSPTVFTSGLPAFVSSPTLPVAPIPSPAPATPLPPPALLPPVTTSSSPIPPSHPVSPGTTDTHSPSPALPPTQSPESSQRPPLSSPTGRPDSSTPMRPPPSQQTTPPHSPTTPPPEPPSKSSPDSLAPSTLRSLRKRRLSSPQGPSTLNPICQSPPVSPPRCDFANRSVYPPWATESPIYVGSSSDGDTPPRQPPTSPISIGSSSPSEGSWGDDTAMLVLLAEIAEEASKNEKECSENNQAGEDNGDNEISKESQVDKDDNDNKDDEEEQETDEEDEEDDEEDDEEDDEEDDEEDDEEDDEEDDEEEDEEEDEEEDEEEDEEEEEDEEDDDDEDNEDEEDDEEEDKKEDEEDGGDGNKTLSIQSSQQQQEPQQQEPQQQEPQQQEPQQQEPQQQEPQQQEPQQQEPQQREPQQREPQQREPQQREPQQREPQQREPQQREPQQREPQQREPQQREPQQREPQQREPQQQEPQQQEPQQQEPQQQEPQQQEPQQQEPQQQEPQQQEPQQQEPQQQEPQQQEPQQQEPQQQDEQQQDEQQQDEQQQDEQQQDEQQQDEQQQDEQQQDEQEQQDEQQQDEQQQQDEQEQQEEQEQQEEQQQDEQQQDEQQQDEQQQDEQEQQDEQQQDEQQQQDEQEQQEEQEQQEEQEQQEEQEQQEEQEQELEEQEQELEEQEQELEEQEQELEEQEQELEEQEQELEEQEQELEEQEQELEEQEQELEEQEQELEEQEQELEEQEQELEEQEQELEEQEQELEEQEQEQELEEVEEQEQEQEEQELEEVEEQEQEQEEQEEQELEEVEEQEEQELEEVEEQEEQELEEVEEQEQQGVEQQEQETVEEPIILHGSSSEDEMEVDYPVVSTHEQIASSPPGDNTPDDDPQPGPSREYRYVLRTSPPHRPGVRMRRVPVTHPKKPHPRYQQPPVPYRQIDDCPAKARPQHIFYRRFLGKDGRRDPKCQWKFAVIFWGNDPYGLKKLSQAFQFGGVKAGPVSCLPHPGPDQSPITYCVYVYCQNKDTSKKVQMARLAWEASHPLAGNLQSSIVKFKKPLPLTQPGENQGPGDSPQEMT
Bfl-1 A1 inh = inhibitors of the anti-apoptotic protein A1, read as caspase activation; MEF A1-2A-BIM cells, Caspase-Glo 3/7 luminescence, 3 h; percent of clofoctol response, vehicle zero; caspase activation, % (concentration not given with the values); 330,000 tested, 0.066% active; AID 2462;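 active = over half of replicate activation scores above 10%, or exactly half above 10 with the replicate mean above 10; inconclusive = replicate mean below 10 yet half the replicates above 10; inactive = over half of replicates below 10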;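 note: wells of about 30 µL received 50 nL stock; many hits fall short of the cut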
RanGTP-Impb inh = disruptors of Ran-importin-beta complex formation – biochemical, FRET, CFP-Ran, YFP-importin-beta, homogeneous, primary screen | cell-free CFP-Ran/YFP-importin-beta FRET ratio | inhibition, % (concentration not given with the values) | 300,000 tested, 1.1% active | AID 2216;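 active = most replicates above 15%; inconclusive = exactly half above 15%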;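 note: 0% = DMSO wells and 100% = Ran loaded with GDP instead of GTP; wells of about 40 µL received 100 nL stock; the first replicate is given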
An asterisk follows results filed as active; ? = inconclusive; nt = not tested or not shown; & = joins results of further samples; ! = repeats disagree.

SMILES	Calb FLC	Vif A3G	MLL AF4-AF9 inh	Beta cell apopt	T cruzi repl	LANA-H2A inh	Bfl-1 A1 inh	RanGTP-Impb inh
CCCC(=O)Nc1ccc(C2C(=O)c3ccccc3C2=O)cc1	-4	5%	-0.6	5	14	1.4	-13	2.7
COc1ccccc1-n1c(SCC(=O)NC2CC2)nc2ccccc2c1=O	nt	-11%	-0.9	-2	nt	3.8	0.8	nt
CCn1c2ccccc2c2cc(NC(=O)COC(=O)c3ccccc3F)ccc21	-1	-50%	-21	-1	1	nt	0.6	3.2
CC1Cc2ccccc2N1C(=O)CSc1nc2ccccc2s1 (stereo not given)	32	nt	-4.4	-4	24	-4.0	-0.6	2.6
CC(/C=C/c1ccccc1)=N/NC(=O)CNC(=O)c1ccccc1F	30	1%	-1.5	1	20	-2.3	0.3	2.6
O=c1c(-c2ccc(O)cc2O)coc2cc(O)cc(O)c12	0	?	-0.7	-1	-23	3.5	1.0	3.0
CCOCCCn1c(SCC(=O)Nc2cccc(S(=O)(=O)NC3=NCCCCC3)c2)nc2ccccc2c1=O	-3	5%	-5.3	-4	17	1.2	0.8	0.6
CCOC(=O)Cn1c(=O)oc2cc(S(=O)(=O)N(C)c3ccc(OC)cc3)ccc21	2	nt	-3.3	-10	-2	-0.7	0.7	2.6
O=c1[nH]c(SCc2ccccc2Cl)nc2c1cnn2-c1ccccc1	5	1%	-2.6	11	12	-1.5	0.7	3.7
C=CCCC(=O)N1CCC(n2nccc2NC(=O)c2ccccc2C)CC1	-1	14%	0.4	nt	-3	1.5	0.1	-1.5
Cc1ccc(NC(=O)c2ccc([N+](=O)[O-])o2)cc1C	117*	5%	0.1	nt	?	-0.5	0.4	-2.0
O=C(NCCS(=O)(=O)N1CCN(c2ccccc2)CC1)C1CC(=O)N(c2ccccc2)C1 (stereo not given)	12	nt	-0.9	-3	-14	0.3	-0.3	5.6
CC1=C(C(=O)N2CCOCC2)C(c2cc(C)ccc2C)NC(=S)N1 (stereo not given)	3	nt	-7.7	-15	-15	-0.7	-0.3	-7.1
COc1ccc(NC(=O)C(F)(OC)C(F)(F)F)c(OC)c1 (stereo not given)	-10	-4%	-24	0	-7	2.9	1.0	2.4
C=CCCCN(Cc1ccccc1)S(=O)(=O)c1ccccc1Br	3	-1%	-3.5	-1	22	8.3	-0.4	2.4
CCc1nnc(NC(=O)CSc2nc(C)cs2)s1	-2	nt	-27	-2	-10	-2.4	-0.2	-1.1
c1ccc(Nc2c3c(nc4ccccc24)CCC3)cc1	42	nt	3.3	16	32	1.9	0.9	0.0
Cc1c(C(=O)Nc2nonc2-c2ccc(F)cc2)oc2ccc(F)cc12	nt	nt	0.4	-1	-19	-2.6	-0.6	2.3
Cc1coc2c(C)c3oc(=O)c(CCC(=O)NCc4ccccn4)c(C)c3cc12	-8	nt	0.0	-3	25	3.4	-0.9	0.6
CCOC(=O)c1c(NC(=O)COC(=O)c2cnc(C)cn2)sc(C(=O)N(C)C)c1C	-10	1%	-1.1	1	-11	-1.4	-1.1	1.6
O=C(Nc1ccncc1)c1ccc(C(=O)Nc2ccncc2)cc1	9	-7%	-3.0	3	-1	1.8	-0.1	2.2
O=C(COc1ccc(Cl)cc1Cl)N/N=C/c1cccnc1	3	nt	-0.1	-2	-1	2.6	-0.3	-7.9
O=C(N/N=C/c1cccnc1)c1ccc(NC(=O)c2cccc(Cl)c2)cc1	13	-2%	2.0	2	10	-4.9	0.2	0.1
CCN(CC)c1ccc(/C=N/NC(=O)c2cccc(S(=O)(=O)N3CCOCC3)c2)c(O)c1	102*	9%	4.1	75*	65*	-4.4	-0.2	-0.7
CN1C=CC=C/C1=C1/SC(=S)N(Cc2ccccc2)C1=O	-10	-4%	nt	-3	0	-0.5	0.5	-7.2
O=C1NCCN1Cc1cccc(Cl)c1	-7	-7%	nt	8	6	-6.4	1.1	-0.8
C=CCOC(=O)C1=C[C@H](c2cn(C(C)=O)c3ccccc23)C[C@H](OCCCCO)O1	-5	2%	-0.4	-8	7	-7.4	0.6	2.6
CCNC(=O)NC(=O)COC(=O)CCCSc1nc2ccccc2s1	-2	-8%	-0.7	-2	-1	-1.2	-2.1	-1.5
O=C(CCc1ccccc1)N/N=C\C1CC=CCC1 (stereo not given)	-4	3%	-6.5	nt	-7	1.9	0.4	-2.0
CC(=O)c1ccc(NC(=O)C2CCCN(C(=O)c3ccc(Cl)cc3)C2)cc1 (stereo not given)	-8	2%	-0.1	2	0	-3.1	1.1	-2.2
CCN(CC)S(=O)(=O)c1ccc2c(c1)N(CC(=O)NCC1CCCO1)C(=O)CO2 (stereo not given)	-4	-6%	-3.6	nt	0	nt	nt	-1.3
O=C(CSc1n[nH]c(-c2ccco2)n1)N1c2ccccc2Sc2ccccc21	5	?	nt	0	5	-3.2	-0.6	2.3
COc1ccccc1NC(=O)Cn1c2ccccc2c2nc3n(c(=O)c21)CCS3	-29	21%	-0.7	0	16	-6.8	0.9	-2.3
COc1cc(Cl)c(NS(=O)(=O)c2ccc(-c3ccc(=O)[nH]n3)o2)c(OC)c1	-1	2%	-1.6	-2	-5	3.2	-1.0	1.4
CN(C(=O)COC(=O)C1CCN(S(=O)(=O)c2c(Cl)cccc2Cl)CC1)C1CCCCC1	0	-3%	3.9	-2	1	-1.4	1.6	0.3
O=S(=O)(c1ccc(Cl)cc1)c1ccccn1	8	-3%	nt	-6	-19	-4.3	0.6	10
C=CCOC(=O)C1=C(C)NC(C)=C(C(=O)OCC=C)C1c1ccc(O)cc1	0	0%	nt	0	25	2.1	1.5	-2.7
CC(C)(C)OC(=O)CNC(=O)c1[nH]cnc1C(=O)NC1CCN(C(=O)OC(C)(C)C)CC1	-6	nt	-5.5	-4	1	-0.2	-0.7	0.7
COc1ccccc1N1CCN(Cc2ccc(OC)c3ccccc23)CC1	8	?	-25	-2	3	3.0	-1.3	4.7
Cc1ccc2[nH]c(O)c(N=O)c2c1	6	19%	0.5	-8	-6	-4.0	0.3	?

Part of the list above in order of formula weight, falling.
SMILES	Calb FLC	Vif A3G	MLL AF4-AF9 inh	Beta cell apopt	T cruzi repl	LANA-H2A inh	Bfl-1 A1 inh	RanGTP-Impb inh
CCOC(=O)Cn1c(=O)oc2cc(S(=O)(=O)N(C)c3ccc(OC)cc3)ccc21	2	nt	-3.3	-10	-2	-0.7	0.7	2.6
O=C(CSc1n[nH]c(-c2ccco2)n1)N1c2ccccc2Sc2ccccc21	5	?	nt	0	5	-3.2	-0.6	2.3
CC(/C=C/c1ccccc1)=N/NC(=O)CNC(=O)c1ccccc1F	30	1%	-1.5	1	20	-2.3	0.3	2.6
O=C(CCc1ccccc1)N/N=C\C1CC=CCC1 (stereo not given)	-4	3%	-6.5	nt	-7	1.9	0.4	-2.0

Next records.
SMILES	Calb FLC	Vif A3G	MLL AF4-AF9 inh	Beta cell apopt	T cruzi repl	LANA-H2A inh	Bfl-1 A1 inh	RanGTP-Impb inh
COc1cc(S(=O)(=O)N2CCN(C(=O)c3ccccc3F)CC2)c(OC)cc1NC(C)=O	-13	13%	nt	nt	0	nt	nt	-1.2
CS(=O)(=O)c1ccc(Cl)c(NC(=O)CSc2nnc(C3CC3)n2C2CC2)c1	nt	-5%	0.5	0	nt	1.8	0.0	nt
O=C1N/C(=N\N=C\c2ccccn2)SC1Cc1cccc(SC(F)F)c1 (stereo not given)	?	12%	nt	63	69*	3.6	0.2	-2.7
O=C(Nc1ccc2c(c1)OCCO2)c1ccc(Br)cc1	-9	14%	-2.4	-2	-6	-5.9	-5.6	1.5
CCc1ccc(C(O)(CC(C)C)C(CN2CCOCC2)c2ccccc2)cc1 (stereo not given)	-10	-2%	0.0	4	3	-0.5	-0.6	0.7
COc1ccc(CC(=O)Nc2ccc(S(=O)(=O)Nc3nccs3)cc2)cc1	6	nt	-3.3	nt	-2	7.2	-0.4	-3.3
Cc1cccc2cc(CN(C(=O)c3cnccn3)C3CCCCC3)c(Cl)nc12	-2	5%	-11	-4	7	-2.7	0.1	1.5
CCn1cc(/C=C(\NC(=O)c2ccccc2F)C(=O)NCCN2CCOCC2)c2ccccc21	19	-4%	6.5	-2	-7	1.1	-0.2	0.1
CCOC(=O)c1c(C)[nH]c(C)c1C(=O)CSc1nnc(-c2ccncc2)n1Cc1ccccc1	-3	1%	nt	-8	37	5.5	0.6	-4.1
COc1ccccc1CNC(=O)COc1cccc(-n2cnnn2)c1	3	-2%	-1.2	2	-1	-0.7	0.4	0.0
O=C(CN1CCOCC1)N/N=C/c1c(O)ccc2ccccc12	-29	nt	1.2	84*	8	-6.0	0.0	4.4
O=C(Nc1ccccc1)/C(=C/c1ccc([N+](=O)[O-])cc1)NC(=O)c1ccco1	-10	nt	-35	nt	-1	7.9	1.6	0.2
Cc1nc(CS(=O)(=O)c2ccc(Cl)cc2)cc(N2CCOCC2)n1	9	-2%	nt	0	-17	1.4	-0.2	4.3
Cc1nc(SCc2ccc(C(=O)O)cc2)c2c(C)c(C)sc2n1	-4	?	-6.0	-2	11	4.4	-0.5	6.7
Cc1ccc(C)c(N2CCN(S(=O)(=O)c3ccc4c(c3)CCN4C(=O)CCC(=O)O)CC2)c1	-2	3%	-1.4	-5	-5	4.1	0.4	-1.6
Cc1nonc1OCCn1c([N+](=O)[O-])cnc1C	8	-6%	3.1	-1	1	3.0	-0.7	nt
COc1ccc(S(=O)(=O)Nc2ccc(NC(C)=O)cc2)cc1[N+](=O)[O-]	-15	3%	-1.9	-3	nt	3.9	-0.5	3.1
CC(C)N1C(=O)CC(Nc2ccc(N3CCOCC3)cc2)C1=O (stereo not given)	-8	2.9µM*	nt	-1	-16	0.9	-0.7	0.5
COc1ccc(-c2ccc3oc(-c4ccc(OC)cc4)c(-c4cc(OC)c(OC)c(OC)c4)c3c2)cc1	-2	nt	-1.1	nt	-9	2.0	-1.0	0.6
Cc1ccc2nc(SCC(=O)Nc3ccc(C)c([N+](=O)[O-])c3)[nH]c2c1	-5	nt	nt	15	-1	-1.7	1.2	-1.6
Cc1cc(C(=O)N2CCCC(N3CCN(c4cccc(Cl)c4)CC3)C2)no1 (stereo not given)	-4	16%	-2.0	nt	12	0.2	2.5	1.8
COc1ccc(/C=C2/C(=O)N=C3SCCN32)cc1	-3	-5%	nt	-1	-16	3.9	0.7	0.7
CCOC(=O)c1ncn2c1CN(C)C(=O)c1cc(F)ccc1-2	-3	-5%&24%	-3.8	2	-5	29*!	-0.6	-4.3
CS(=O)(=O)c1ccccc1-c1nnc(NC(=O)c2cccc(N3C(=O)CCC3=O)c2)o1	0	4%	-4.9	-2	-8	nt	-0.4	4.0
COc1cc(/C=c2\s/c(=C\C(=O)C(C)(C)C)[nH]c2=O)cc(OC)c1OC	9	nt	5.8	-1	19	5.2	-0.1	-0.7
COCCNC(=O)/C(C#N)=C/c1ccc(OCC(=O)NC2CCCCC2)cc1	-1	1%	-0.5	-1	-5	1.0	-0.6	0.0
